Assay outcomes deposited in PubChem BioAssay by Broad Institute.
STK33 inh – human STK33 kinase inhibition. Q9BYT3. purified STK33, MBP phosphorylation, ADP-Glo luminescence. inhibition, % at 10 µM. 320,000 compounds, 0.073% hits;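 active means inhibition at or above 25%, using the most active replicate where run in duplicate; inactive means inhibition below 25%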
Target sequence (Q9BYT3 whole entry, looked up): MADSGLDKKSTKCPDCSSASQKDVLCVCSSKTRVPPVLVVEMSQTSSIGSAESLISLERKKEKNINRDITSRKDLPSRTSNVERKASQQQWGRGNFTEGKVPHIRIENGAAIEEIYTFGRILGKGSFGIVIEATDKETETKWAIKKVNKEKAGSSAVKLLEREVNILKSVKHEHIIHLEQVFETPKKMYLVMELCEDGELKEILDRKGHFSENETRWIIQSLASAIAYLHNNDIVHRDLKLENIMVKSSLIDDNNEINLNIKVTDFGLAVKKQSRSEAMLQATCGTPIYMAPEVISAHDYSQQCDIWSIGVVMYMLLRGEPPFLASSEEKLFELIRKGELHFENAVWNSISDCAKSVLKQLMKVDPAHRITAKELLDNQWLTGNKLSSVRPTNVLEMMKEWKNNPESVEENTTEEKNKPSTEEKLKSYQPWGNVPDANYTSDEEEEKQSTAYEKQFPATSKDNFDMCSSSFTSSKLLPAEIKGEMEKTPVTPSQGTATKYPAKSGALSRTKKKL
Numbers without * were called inactive.

SMILES	STK33 inh
CC(=O)Nc1cccc(NC(=O)CCNC(=O)c2ccc(Cl)cc2)c1	-0.4
N#CCNc1ccc([N+](=O)[O-])cc1C#N	1.4
O=C(/C=C/c1ccccc1)N(Cc1cccc(Cl)c1)C1CCS(=O)(=O)C1 (stereo unspecified)	0.9
Cc1ccc(NC(=O)CCCCCN2C(=O)[C@@H]3Cc4ccccc4CN3C2=O)cc1	-0.3
Cc1ccc(S(=O)(=O)N2CCCCC2)cc1NC(=O)COC(=O)Cc1c(F)cccc1Cl	1.2
COc1cccc(Oc2ccc3nnc(C(F)(F)F)n3n2)c1	-0.4
CCOC(=O)C1C(CC)NC(=S)NC1(C)O (stereo unspecified)	-0.1
Cc1ccc(Nc2nnc(C3C(=O)N(C)C4(C)CC3c3cc(Br)ccc3O4)s2)cc1 (stereo unspecified)	1.0
CC(C)n1nc(C(=O)OCC(=O)c2c[nH]c3ccccc23)c2ccccc2c1=O	0.6
COCCn1nnnc1C(c1cc2ccc(OC)cc2[nH]c1=O)N1CCN(C2CCCCC2)CC1 (stereo unspecified)	0.5
O=[N+]([O-])C1=CC=C2C(=NC3(CCCCC3)N2O)C1=NC1CCCCC1	-0.3
CC(C)(C)N1C(=O)c2ccc(C(=O)Nc3cc(C(=O)O)cc(C(=O)O)c3)cc2C1=O	-0.6
CC(C)Cn1c(=O)c(-[n+]2ccccc2)c([O-])c2ccccc21	0.2
CCC(CC)C(=O)OCC(=O)NC12CC3CC(CC(C3)C1)C2	-2.5
Cc1ccc(Cn2c(=O)c3ccccc3n3nc(C)cc23)cc1	3.4
COc1ccc(-c2[nH]ncc2CN2CCCO2)c(F)c1	-0.4
Cc1ccc(OC(C)C(=O)N2CC(=O)Nc3ccccc32)cc1 (stereo unspecified)	5.0
S=C(NCCc1ccccn1)Nc1cc(Cl)cc(Cl)c1	3.3
O=C(COC(=O)c1ccc2c(c1)C(=O)N(c1cccc3ncccc13)C2=O)c1ccc(Cl)cc1	-1.3
O=C(CSc1nc(-c2ccccc2)cc(C(F)(F)F)n1)NCc1cccs1	-1.1
Cc1ccc(/C=N/OC(=O)c2c(C)noc2-c2snnc2C)cc1	-1.4
CSCCC(=O)N(C)CC1CCN(CCc2cccc(C(F)(F)F)c2)CC1	0.1
Cc1ccc(S(=O)(=O)n2nc(C)c(S(=O)(=O)N3CCOCC3)c2C)cc1	-1.9
O=C(NCCc1ccc(Cl)cc1)c1ccc(S(=O)(=O)N2CCCC2)cc1	-0.8
COc1ccc2c(c1)CCc1c(C(=O)N3CCCC3)noc1-2	-1.6

Overlap with the part before: 5 entries; new compounds follow.
SMILES	STK33 inh
Cc1ccc(/C=N/OC(=O)c2c(C)noc2-c2snnc2C)cc1	-1.4
CSCCC(=O)N(C)CC1CCN(CCc2cccc(C(F)(F)F)c2)CC1	0.1
Cc1ccc(S(=O)(=O)n2nc(C)c(S(=O)(=O)N3CCOCC3)c2C)cc1	-1.9
O=C(NCCc1ccc(Cl)cc1)c1ccc(S(=O)(=O)N2CCCC2)cc1	-0.8
COc1ccc2c(c1)CCc1c(C(=O)N3CCCC3)noc1-2	-1.6
CCCCOc1ncnc2c1[nH]c1ccc(F)cc12	-0.6
CC(=O)N1CCN(C2=Nc3cccc4cccc2c34)CC1	-0.9
COc1cccc(C2=NOC(C(=O)NC(C)C)C2)c1 (stereo unspecified)	-1.9
O=[N+]([O-])c1cc(S(=O)(=O)N2CCCC2)ccc1N/N=C/c1cccnc1	0.5
C/C(=N/OC(=O)c1ccccc1)c1oc(C)nc1C	0.3
Cc1ccc(CNC(=O)CSc2nc3ccsc3c(=O)n2Cc2ccccn2)cc1	-0.2
O=C(/C=C/Nc1ccc(Oc2ccccc2Cl)cc1)c1ccco1	0.5
Cc1cc(=O)[nH]c(SCC(=O)N2CCCCCC2)n1	-0.9
CN(C)c1cccc(C(=O)N/N=C/c2ccsc2)c1	-0.8
CC1(C)CC(c2nc(-c3ccc(Br)cc3)cs2)CCS1 (stereo unspecified)	0.4
O=C(Nc1ccccc1)c1ccc2c(c1)OCCO2	4.4
CCC1(C)SC(NC(C)=O)=NN1C(C)=O (stereo unspecified)	-2.0
N/C(=N\OC(=O)C1CCCCC1)c1cccc(Br)c1	0.1
COC(=O)[C@H](CC(C)C)NC(=O)c1cc2c(cn1)[nH]c1ccccc12	-1.7
CCC(=O)Nc1nc2ccc(S(C)(=O)=O)cc2s1	2.1
COC(=O)c1oc2ccc(Br)cc2c1NC(=O)c1ccccc1	0.9
CCOc1ccc(NC(=O)CCC(=O)OC)cc1	-0.8
COc1ccc(S(=O)(=O)NCC(=O)Nc2cccc(C)c2C)cc1OC	-1.3
Cc1ccc(NS(=O)(=O)c2ccc(C(=O)N3CCN(S(=O)(=O)c4ccccc4)CC3)cc2)cc1	-0.5
CC1(C)CC(=O)C2=C(C1)Nc1ccccc1NC2c1cccnc1 (stereo unspecified)	-2.4
CCOC(=O)NCCOC(=O)Nc1ccc(Cl)cc1	-0.7
COc1cc(C2=NOC(C(=O)NCc3ccco3)C2)cc(OC)c1OC (stereo unspecified)	-1.0
Cc1cccc2sc(NC(=O)C3=NN(c4ccccc4)C(=O)CC3)nc12	11
CCNCC(=O)Nc1ccc(N2CCOCC2)cc1	-0.3
Clc1ccc(-c2cn3cc(Br)ccc3n2)cc1Cl	-1.9

Next part.
SMILES	STK33 inh
CCCCN(C)C(=O)C1CCN(Cc2ccc(OCc3ccccc3)cc2)CC1	-2.4
CCOC(=O)c1c(CN2CCCCC2)n(C)c2ccc(OC)c(S(=O)(=O)c3ccccc3)c12	-3.6
Cc1cc(C)n(C(=O)Cn2nc([N+](=O)[O-])c(Br)c2C)n1	-0.5
CCC(=O)NC(c1ccccc1)c1c(O)ccc2ccccc12 (stereo unspecified)	-0.9
Cn1nccc1/C=N\NC(=O)c1ccc(Cl)cc1	1.0
N#CC1=C(N)N(c2ccc(F)cc2)C(=O)C1	-1.3
COc1ccc(NC(=O)C/C(C)=N/NC(=O)CCc2ccccc2)c(OC)c1	0.6
O=c1cc(N2CCCCC2)c(-c2ccccc2)nn1Cc1cccc(Cl)c1	-0.9
CN(Cc1ccccc1)S(=O)(=O)c1ccc(N2CCOCC2)nc1	-1.1
CCc1nnc(NC(=O)C2(C)COC(c3ccc(OC)cc3)OC2)s1 (stereo unspecified)	-1.3
CC1Cc2nc(SCC(=O)N3CCOCC3)n(C)c(=O)c2S1 (stereo unspecified)	-1.1
Cc1cc(=O)oc2cc(OCC(=O)NCC3CCC(C(=O)O)CC3)ccc12 (stereo unspecified)	-2.0
Cc1ccc(OCc2nnc(SCC(=O)Nc3cccc4ccccc34)n2-c2ccccc2)cc1	-0.3
CCN(CC)c1ccc(NC(=O)c2cc3c(OC)cccc3[nH]2)cc1	-1.2
CS(=O)(=O)c1ccc(-c2cccc(NC(=O)c3ccco3)c2)nn1	-1.2
O=C1CN(C(=O)c2cc(Br)c(Br)s2)c2ccccc2N1	0.1
Cc1cccc(OC(=O)c2ccc3nccnc3c2)c1	0.1
Cc1ccnc(NS(=O)(=O)c2ccc(NC(=O)C(C)(C)C)cc2)n1	-1.6
O=C(CN1C(=O)C2CCCCC2C1=O)Nc1nc2ccc(F)cc2s1 (stereo unspecified)	5.9
COC(=O)C(Cc1cnc(Cl)s1)(C(=O)OC)c1ccc([N+](=O)[O-])cc1	-0.9
O=c1c2ccccc2oc2nc3n(c(=O)c12)CCCS3	-0.2
COc1ccc(-n2nc(C(=O)NCC(=O)N3CCN(C)CC3)c3ccccc3c2=O)cc1	-0.1
Cn1cccc1C(=O)C(=O)Nc1ccccc1	-0.2
CC(=O)c1ccc(NC(=O)c2sc3nc(N4CCOCC4)c4c(c3c2N)CCCC4)cc1	0.4
COc1ccc(NC(=O)c2nc[nH]c2C(=O)N2CCC(C)CC2)cc1	-1.1

7 structures already listed, arranged by SMILES length, smallest number first.
SMILES	STK33 inh
Cn1cccc1C(=O)C(=O)Nc1ccccc1	-0.2
N#CC1=C(N)N(c2ccc(F)cc2)C(=O)C1	-1.3
CCC(=O)NC(c1ccccc1)c1c(O)ccc2ccccc12 (stereo unspecified)	-0.9
Cc1ccnc(NS(=O)(=O)c2ccc(NC(=O)C(C)(C)C)cc2)n1	-1.6
Cc1ccc(OCc2nnc(SCC(=O)Nc3cccc4ccccc34)n2-c2ccccc2)cc1	-0.3
COc1ccc(-n2nc(C(=O)NCC(=O)N3CCN(C)CC3)c3ccccc3c2=O)cc1	-0.1
CCOC(=O)c1c(CN2CCCCC2)n(C)c2ccc(OC)c(S(=O)(=O)c3ccccc3)c12	-3.6

(continued)
SMILES	STK33 inh
NC(N)=Nc1nc(CSCC/C(N)=N/S(N)(=O)=O)cs1	0.4
CC(C)n1c(=S)[nH]c2cc(C(F)(F)F)ccc21	-0.7
N#C/C(=C\c1cccc(Oc2ccc(C(F)(F)F)cc2[N+](=O)[O-])c1)c1nc2ccccc2[nH]1	0.4
Cc1cc(C)n(C(C)CC(=O)Nc2ccc(-c3ccno3)cc2)n1 (stereo unspecified)	-0.6
CCn1c(Oc2cccc(Br)c2)nc2c1c(=O)n(C)c(=O)n2C	3.1
Cc1ccnc2nc(C(=O)Nc3cc(Cl)ccc3N3CCOCC3)nn12	-1.8
O=C(Oc1ccccc1)Oc1ccc2c(c1)oc(=O)c1ccccc12	-1.9
FC(F)(F)c1cc(Cl)c2nc(-c3ccccc3)cn2c1	0.1
O=c1[nH]c(-c2ccccc2)nc2sc(-c3ccccc3)cc12	-0.5
CN(C)S(=O)(=O)c1ccc(C(=O)NCC(=O)Nc2ccc(F)c(F)c2)cc1	-2.6
CCOC(=O)C1(Cc2cccc(OC)c2)CCCN(CCO)C1 (stereo unspecified)	-0.7
C=CCNC(=S)NNC(=O)c1csc(C)c1CC	0.7
COc1ccc(N(CC(=O)NC(C)(C)C)C(=O)c2ccco2)cc1	0.5
CC(=O)c1c(O)c2cccc3c2n(c1=O)CCC3	-0.9
O=[N+]([O-])c1cc(Cl)ccc1-c1nc(-c2ccccc2)no1	0.0
Cc1ccccc1N(CC(=O)NCCSCc1ccco1)S(C)(=O)=O	-2.4
CCOc1ccc(-c2noc(CCCC(N)=O)n2)cc1OC	-1.7
CCN(CC)S(=O)(=O)c1cccc(C(=O)OC2CCOC2=O)c1 (stereo unspecified)	-1.8
CC[C@@]1(c2cccc(C)c2)C(=O)N(C(=O)OC)N1C(=O)OC	0.3
Cn1cccc1/C=N/NC(=O)C(O)c1ccccc1 (stereo unspecified)	-0.4
CC(/C=N/NC(=O)c1cnccn1)=C\c1ccco1	0.5
Cc1ccc(N=C2NC(=O)/C(=C/c3cccn3C)S2)cc1	-1.5
Cc1c(-c2ccc(/C=N/NC(=O)C(=O)Nc3ccccc3F)o2)cccc1[N+](=O)[O-]	-1.1
O=C1O/C(=C/c2ccccc2)N=C1c1ccccc1	-0.1
COc1ccc(-n2c(C)nc3c(cnn3-c3ccc(Cl)cc3)c2=O)cc1	-0.6

(more compounds)
SMILES	STK33 inh
CC(C)(C)c1cc(C(=O)NCC(=O)OCC(=O)c2cccc([N+](=O)[O-])c2)cc(C(C)(C)C)c1	0.4
CCOC(=O)c1cc(C(=O)c2cc(Br)ccc2O)coc1=N	-0.3
NC(=O)C(c1ccc(F)cc1)c1ccc(C(=O)c2ccccc2)cc1 (stereo unspecified)	-1.5
COc1ccc(OC)c(C2=NS(=O)(=O)N(C)C(C(=O)Nc3cccc(C(C)=O)c3)=C2)c1	-0.8
CC1(C)CC(C(CC(=O)O)c2ccccc2)CCO1 (stereo unspecified)	-1.2
CCN(CC(O)Cn1c2ccccc2c2ccccc21)S(=O)(=O)c1ccc(F)cc1 (stereo unspecified)	-0.7
c1ccc(-c2noc(COc3ccc4c(c3)OCO4)n2)cc1	-0.7
Cc1cc(Nc2cccc(F)c2)n2ncnc2n1	-0.1
CC(C(=O)NCc1cccc(Cl)c1)N1C(=O)c2ccccc2C1=O (stereo unspecified)	-1.0

Only part of the results is shown, and most or all hits are left out here.
